# Screens as filed in PubChem BioAssay.
# HCMV NEC inh: disrupts HCMV UL50-UL53 complex binding; HTRF UL50-UL53 interaction, normalized percent inhibition; inhibition, % (test concentration not listed); actives 0.15% (n = 190,000); AID 1918969;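 active means both replicates at 50% or more, plus weaker picks with an unusually low signal ratio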;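 further: stock transfer was 100 nL into about 20 µL; 0% = negative control wells and 100% = wells with untagged competitor protein; inactives centre near -12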
# GIV Gai3 FP: blocks GIV peptide binding to rat Galpha-i3 | Galpha-i3/FITC-GIV peptide fluorescence polarization, 90 min; active compounds read low; scaled: aluminum fluoride 0%, vehicle 100% | percent of control (FP), % (no concentration beside the values) | actives 0.42% (n = 210,000) | AID 1224905;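 active means replicate mean at 85% of control or lower, very high polarization wells dropped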;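 further: wells of about 15 µL received 100 nL stock; the first replicate is given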
# Target sequence (P08753 whole entry, looked up): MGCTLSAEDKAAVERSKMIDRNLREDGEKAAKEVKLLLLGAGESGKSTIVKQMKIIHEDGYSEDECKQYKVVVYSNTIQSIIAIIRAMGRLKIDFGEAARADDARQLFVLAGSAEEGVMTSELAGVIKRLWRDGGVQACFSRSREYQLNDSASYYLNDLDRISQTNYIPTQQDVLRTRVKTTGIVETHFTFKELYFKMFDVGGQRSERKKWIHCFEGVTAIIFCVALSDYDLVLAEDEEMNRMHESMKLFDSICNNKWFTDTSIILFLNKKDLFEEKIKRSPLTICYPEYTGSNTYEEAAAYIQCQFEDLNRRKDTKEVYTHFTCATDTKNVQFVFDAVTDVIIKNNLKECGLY
# Sa growth 42C: inhibitors of Staphylococcus aureus growth at 42 °C. S. aureus RN4220 growth, OD600, 20 h; active compounds read low. relative growth, % (concentration not given with the values). actives 0.53% (n = 170,000). AID 720641;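 active means growth at 42 °C up to 50% and 20 or more points under that at 30 °C, or under 10% at both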;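 further: 300 nL library stock went into each well; scaled to the means of positive and negative controls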
# Sa growth 42C second temp: also measured in Sa growth 42C; calls as there; relative growth, %; measured here: growth at 30 °C;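 optical density after 20 h as mean of two plates; 100% = untreated growth and lower means inhibition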
# Active calls of the source: *; . = not tested or not shown; & = joins results of further samples.
SMILES,HCMV NEC inh,GIV Gai3 FP,Sa growth 42C,Sa growth 42C second temp
CCN1CCN(CCCNC(=O)c2cc3c(=O)[nH]c4ccc(C)cc4c3s2)CC1,-12,117,104,93
CSc1ncc(Cl)c(C(=O)N(C)c2ccccc2)n1,-1,109,106,93
CC(C)(C)c1ccc(OCCOc2ccc(/C=C3/NC(=S)NC3=O)cc2)cc1,-19,108,.,.
CSc1ccc(S(=O)(=O)Nc2ccc(N3CCOCC3)c(Cl)c2)cc1,-12,.,76,88
CC1CC(CCC(=O)Nc2ccc(S(N)(=O)=O)cc2)C(=O)O1 (stereo unspecified),.,102,121,90
COc1ccccc1N1CCN(Cc2cc(=O)oc3cc(C)c(Cl)cc23)CC1,-9,.,91,101
Cn1c(=O)c(=O)n(C)c2cc(S(=O)(=O)CCC(=O)Nc3ccc(F)cc3)ccc21,-2,103,109,95
COc1cc(NC(=O)c2cc3c(s2)-c2ccccc2OC3)cc(OC)c1OC,-7,101,102,70
O=C1NC(=Nc2ccc(Br)cc2)SC1Cc1cccc2ccccc12 (stereo unspecified),0,101,.,.
CCCc1nnc(-c2cc3ccccc3n2CC(=O)N2CCCCC2)o1,-15,104,.,.
Fc1c(F)c(Oc2ccccc2)c(F)c(F)c1Oc1ccccc1,-3,105,79,102
O=C(Nn1cnnc1)c1cccc(C(F)(F)F)c1,-5,99,.,.
CN(C)CCNC(=O)c1nc(-c2cccnc2)no1,.,101,90,77
CCOc1ccc(N(C)S(=O)(=O)c2ccc3[nH]cc(C(=O)NCC4CCCO4)c(=O)c3c2)cc1 (stereo unspecified),.,107,78,87
CSc1ccc(CNC(=O)CCn2ccc3cc(S(=O)(=O)N4CCC(C)CC4)ccc32)cc1,.,101,123,91
CCCc1c(C)nc(N)c(C#N)c1-c1ccc(OC)c(OC)c1,-9,103,102,89
CCOC(=O)CSc1c(-c2cccs2)[nH]c2ccccc12,-5,.,102,88
COC(=O)c1c(NC(=S)NCc2ccco2)sc2c1CCC(C)C2 (stereo unspecified),-18,104,102,86
Cc1ccccc1NC(=O)C(C)n1c2ccccc2c2nc(=O)cc(C)n21 (stereo unspecified),7,108,.,.
O=C(OCc1cccs1)c1ccco1,-5,.,100,88
CC1CCCN(C(=O)c2cccc3c2SCCC3=O)C1 (stereo unspecified),-24,105,94,86
CCc1ccc(-c2[nH]nc3c2C(c2ccc(Br)cc2)C2=C(CC(C)(C)CC2=O)N3)cc1 (stereo unspecified),-19,102,.,.
CCC(C)c1ccc(N2C(=O)C=CC2=O)cc1 (stereo unspecified),-2,113,44,30
Cc1nc2cc(NCc3ccccc3O)ccc2n1Cc1ccccc1,-25,102,101,85
Cc1ccc(Cl)cc1N1CCN(C(=O)c2cnc3scc(C)n3c2=O)CC1,-24,109,.,.
Cc1cccc(C(=O)Nc2ccccn2)c1,-8,.,82,78
c1coc(CNc2ncnc3sc4c(c23)CCCC4)c1,-18,105,104,81
CCOC(=O)c1oc2ccc(Br)cc2c1COC(=O)CCn1c(C)csc1=O,-21,.,98,97
CCCN(CCC)C(=O)c1c[nH]c2ccc(S(=O)(=O)Nc3ccc(CC)cc3)cc2c1=O,.,101,113,93
CCC1CCCCN1CCCNc1nn2nnnc2c2ccccc12 (stereo unspecified),-26,99,.,.
O=C1CN(C(=O)Cc2ccc(F)cc2)C(c2ccccc2)c2cc(Br)ccc2N1 (stereo unspecified),-5,104,90,92
CCOC(=O)c1cnc2cc(-c3ccccc3)[nH]n2c1=O,-6&1,106,91&107,84&93
Cn1nc(-c2ccc(S(=O)(=O)NCc3cccs3)s2)cc1C(F)(F)F,-42,100,97,77
O=C1CSC(=O)N1CNc1cc(Cl)ccc1Cl,-49,102,120,94
CCn1c(=NC(=O)CSCC(=O)Nc2nc(-c3ccccc3)cs2)sc2ccccc21,.,97,116,94
O=C(Nc1nc2n(n1)C(c1ccc(F)cc1)C=C(c1ccc(Cl)cc1)N2)c1ccco1 (stereo unspecified),-28,121,108,75

# Ordered by molecular weight (low to high): some entries from above.
SMILES,HCMV NEC inh,GIV Gai3 FP,Sa growth 42C,Sa growth 42C second temp
Cc1cccc(C(=O)Nc2ccccn2)c1,-8,.,82,78
CCOC(=O)c1cnc2cc(-c3ccccc3)[nH]n2c1=O,-6&1,106,91&107,84&93
O=C1CSC(=O)N1CNc1cc(Cl)ccc1Cl,-49,102,120,94
Cn1nc(-c2ccc(S(=O)(=O)NCc3cccs3)s2)cc1C(F)(F)F,-42,100,97,77
CCOC(=O)c1oc2ccc(Br)cc2c1COC(=O)CCn1c(C)csc1=O,-21,.,98,97
CCn1c(=NC(=O)CSCC(=O)Nc2nc(-c3ccccc3)cs2)sc2ccccc21,.,97,116,94

# (list continues)
SMILES,HCMV NEC inh,GIV Gai3 FP,Sa growth 42C,Sa growth 42C second temp
N#CC1=C(N)C(C#N)(C#N)[C@@H](c2cccc(Cl)c2)[C@@H]2CSCC=C12,2,.,79,84
O=C(Cn1ncc2c3ccccc3n(Cc3ccccc3)c2c1=O)Nc1ccc(F)cc1,3,108,115,99
CC(=O)Nc1ccc(NC(=O)C(C)OC(=O)c2c3c(nc4ccccc24)CCN(C)C3)cc1 (stereo unspecified),-36,.,97,79
Cc1c(O)c2cnn(-c3ccccc3)c2[nH]c1=O,-5,96,100,88
Cc1ccc(C(=O)CN2C(=O)c3ccccc3S2(=O)=O)cc1,31,98,81,95
Cc1ccc2scc(N3CCc4ccccc4C3)c(=O)c2c1,.,111,105,86
CC1(C)CC(=O)c2c(oc3c(Cl)cc(NS(=O)(=O)c4ccc(Br)cc4)cc23)C1,-38,106,96,91
O=S(=O)(NCc1ccccc1Cl)c1ccc2nc(-c3ccccc3)[nH]c2c1,.,107,179,72
COc1ccc(-n2nc3c(N4CCCC(C(=O)NCc5ccccn5)C4)nnc(C)c3c2C)cc1 (stereo unspecified),0,101,.,.
O=C(c1ccco1)n1c(=S)nc2ccccn21,6,.,82,99
CC(=O)Nc1ccc(C2Nc3ccccc3C(=O)N2C2CCCCC2)cc1 (stereo unspecified),-15,105,91,81
CC1=C(c2ccc(C)c(C)c2)S(=O)(=O)N(Cc2ccc(C(=O)NCc3cccnc3)cc2)C1=O,18,104,.,.
COC(Cn1c(-c2ccccc2)cc(C2=C(O)CC(C)(C)CC2=O)c1-c1ccccc1)OC,.,97,119,96
CCOC(=O)CC1=CC(SCc2cc(C)ccc2C)=Nc2ccccc2N1,-41,109,.,.
CCCn1nnnc1NCc1ccc2c(c1)n(C)c(=O)n2C,-17,103,.,.
Cc1cccc(-n2c(C)cc(C=NO)c2C)c1,-4,102,74,55
COc1ccccc1OCC(=O)NCCc1csc(-c2ccccc2)n1,-26,99,.,.
CNc1c(NC(=O)c2cc(OC)cc(OC)c2)c(=O)oc2ccccc12,4,108,119,94
Cc1ccn2c(Nc3ccc4c(c3)OCO4)c(-c3ccc(N(C)C)cc3)nc2c1,-31,98,96,91
Cc1cccc(Cn2c(SCc3ccc(C(=O)NCc4ccccc4F)cc3)nc3cccnc32)c1,.,99,111,108
COCC(C)NCc1cccc2ccccc12 (stereo unspecified),12,.,86,101
Cc1cc(NC(=O)NC(=O)c2ccccc2)no1,-5,100,102,81
Cn1c(SCc2cc(F)cc(F)c2)nnc1-c1ccc2nonc2c1,-24,101,101,99
CC(C)CCNC(=O)C1(C)CCC(=O)N1Cc1ccccc1Cl (stereo unspecified),-25,108,98,92
CC1CN(C)C(C)c2c1oc1ccc(N)cc21 (stereo unspecified),3,102,110,99
CCC(=O)c1ccc(N2CCCCC2)c(F)c1,-19,101,90,93
COc1cc(/C=C/c2nc(C#N)c(NC3CCCCC3)o2)cc(OC)c1OC,-26,100,103,82
O=C(CSc1nc2c(c(C(F)(F)F)n1)CCc1ccccc1-2)N1CCCCC1,-1,100,84,94
COc1cc(Cl)ccc1S(=O)(=O)N1CCCN(S(=O)(=O)c2ccc(Cl)cc2OC)CC1,-21,100,99,76
CCc1cccc(C)c1NC(=O)Cn1ccn(-c2ccc(F)cc2)c(=O)c1=O,-22,97,110,99
COc1ccc(C)cc1NC(=O)Cn1nc(N2CCN(c3ccccc3OC)CC2)ccc1=O,.,104,83,93
O=C(NN1C(=O)c2cccc3cccc(c23)C1=O)c1ccn[nH]1,-87,106,116,110
O=C1CCCC(O)=C1C=NCCCn1ccnc1,-19,87,90,87
CN(Cc1ccccc1)C(=O)C1CCN(c2nnc(-n3cccc3)s2)CC1,.,104,88,86
CCN(CC)Cc1c(CC(C)C)oc(C)c1C(=O)O,0,.,88,90
Cc1noc(Cn2c(=O)c3ccccc3n(CC(=O)Nc3ccccc3F)c2=O)n1,-14,104,.,.
CC(=O)Nc1nonc1-c1nnc(SCC(=O)Nc2ccc(C)c(Cl)c2)n1C,-1,100,100,95
COc1ccccc1-c1nc2c(c(SCc3cc(C)ccc3C)n1)Cc1c(CO)cnc(C)c1O2,.,100,90,87
CC(C)(C)S(=O)(=O)/C(C#N)=C/c1ccsc1,8,102,134,97
Nc1ncnc2c1nc(N1CCOCC1)n2C1OC(CO)C(O)C1O (stereo unspecified),-22,101,.,.
CC(C)NC(=O)CSc1nnc(Cc2ccccc2)n1C,-18,104,114,94
Cc1cc(NC(=O)CCC(=O)Nc2cc(C)on2)no1,5,108,100,99
NC(=O)C1=CN(C2OC(COP(=O)(O)OP(=O)(O)OC[C@H]3O[C@@H](n4cnc5c(N)ncnc54)C(OP(=O)(O)O)[C@H]3O)C(O)C2O)C=CC1 (stereo partly specified),-1,97,.,.
O=C(CSc1ccc2ccccc2c1)N1CCOCC1,-9,107,97,101
COC(=O)c1ccc(NC(=O)CSc2ccc(-c3cccs3)nn2)cc1,.,102,115,80
CC(C)c1ccc(NC(=O)CN(C)S(=O)(=O)c2cnc[nH]2)cc1,-10,99,108,91
Cn1c(=O)c(-c2[nH][nH]c(=O)c2/C=C2/C=Nc3ccccc32)c(O)c2ccccc21,-21,.,70,77
O=S1(=O)CCC(NS(=O)(=O)c2ccc3c(c2)CCO3)C1 (stereo unspecified),-10,100,126,88

# 4 records picked at random from the list so far:
SMILES,HCMV NEC inh,GIV Gai3 FP,Sa growth 42C,Sa growth 42C second temp
CC(C)(C)S(=O)(=O)/C(C#N)=C/c1ccsc1,8,102,134,97
NC(=O)C1=CN(C2OC(COP(=O)(O)OP(=O)(O)OC[C@H]3O[C@@H](n4cnc5c(N)ncnc54)C(OP(=O)(O)O)[C@H]3O)C(O)C2O)C=CC1 (stereo partly specified),-1,97,.,.
O=C(CSc1ccc2ccccc2c1)N1CCOCC1,-9,107,97,101
Cc1cc(NC(=O)CCC(=O)Nc2cc(C)on2)no1,5,108,100,99

# Other structures follow.
SMILES,HCMV NEC inh,GIV Gai3 FP,Sa growth 42C,Sa growth 42C second temp
O=C(CSC1=Nc2ccccc2C2=NC(Cc3ccccc3)C(=O)N12)c1ccc(F)cc1 (stereo unspecified),.,99,116,84
OC1CCCN(CC(O)COc2ccc(-c3ccccc3)cc2)C1 (stereo unspecified),2,.,128,97
Cc1ccccc1Cn1c(CCCO)nc2ccccc21,11,.,106,105
Cc1ccc(-n2nc(C(=O)Nc3ccc(C)c(F)c3)c(=O)n(C)c2=O)cc1,.,105,82,85
CCC(=O)Nc1cccc(-c2nc3cccnc3s2)c1,-93,102,107,65
O=S(=O)(Nc1ccc(-c2ccc(N3CCCC3)nn2)cc1)c1cccc(F)c1,2,107,.,.
COC(=O)c1cc(S(=O)(=O)NCC2CCN(Cc3ccc(F)cc3)CC2)cn1C,.,106,103,100
COc1cc(OC)cc(C(=O)Nc2cc(-c3nc4ccccc4[nH]3)ccc2C)c1,-21,110,102,87
CCC(C)NC(=O)c1cccc(N2CCCC2=O)c1 (stereo unspecified),-8,101,91,93
C/C(C#N)=C(/N)c1ccccc1,16,.,80,97
Cc1c(NC(=O)c2nn3c(C(F)(F)F)cc(-c4ccco4)nc3c2Cl)c(=O)n(-c2ccccc2)n1C,3,106,.,.
CS(=O)(=O)N(CCCCn1c2ccccc2c2ccccc21)Cc1ccco1,-16,104,109,97

# An excerpt of these results, with values under each structure.
# Order of values – HCMV NEC inh | GIV Gai3 FP | Sa growth 42C | Sa growth 42C second temp
O=C(CSC1=Nc2ccccc2C2=NC(Cc3ccccc3)C(=O)N12)c1ccc(F)cc1 (stereo unspecified)
 : . | 99 | 116 | 84
OC1CCCN(CC(O)COc2ccc(-c3ccccc3)cc2)C1 (stereo unspecified)
 : 2 | . | 128 | 97
Cc1ccccc1Cn1c(CCCO)nc2ccccc21
 : 11 | . | 106 | 105

# (next part)
SMILES,HCMV NEC inh,GIV Gai3 FP,Sa growth 42C,Sa growth 42C second temp
Cc1ccn(CCC(=O)NCCN2CCc3ccccc3C2)n1,10,108,99,105
C=CCN=c1scc(-c2ccco2)n1/N=C/c1c[nH]c2ccccc12,-22,.,107,78
Cc1cc(C)c(C(N)=O)c(SCC(=O)N2CCc3ccccc3C2)n1,-27,.,110,66
Cc1cc(C)n(C(CC(=O)O)C(=O)O)n1 (stereo unspecified),6,104,112,66
CCOc1ccc(N2C=C(C(=O)c3ccc(CC)cc3)S(=O)(=O)c3cc(F)ccc32)cc1,-10,106,.,.
Cc1ncc(C(=O)NCc2cccc(Cl)c2)c(C)n1,-7,104,.,.
COc1ccc(/C=C/C(=O)N(C)c2ccccc2C(=O)O)cc1,-3,.,127,100
O=C(CSc1ncc2c(n1)-c1ccccc1N(Cc1ccc(Cl)cc1)S2(=O)=O)c1ccc(Cl)cc1,.,99,80,89
COc1ccc(NC(=O)C(C)n2nc(-c3ccc(C)c(C)c3)ccc2=O)cc1OC (stereo unspecified),-10,102,103,83
COc1cc(/C=C2\SC(N(C)c3ccc(O)cc3)=NC2=O)ccc1O,-49,159,79,49

# No enrichment for hits; overall some 0.83% were active at least once.
